A1 apoptosis 2 – blocks A1, raising caspase activity | MEF A1-2A-BIM cells, caspase-Glo luminescence, 3 h; percent of clofoctol response, DMSO zero | caspase activation, % (no concentration beside the values) | 24,000 tested, under 10 active | AID 2465; in the data active means caspase activation above about 5.9%;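 further: wells of about 30 µL received 50 nL stock; the first replicate is given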
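system = A1-2A-BIM-expressing MEF cells | quantity = 2500 MEF cells/well | dosing = 50 nL compound per well, pinned | schedule = overnight cell settling, then 3 h compound exposure, 37 °C | signal = luminescence from DEVD-luciferin Caspase-Glo reagent, 1:1 in 50 mM HEPES, 1 h RT | read-out = Caspase-3/7 activation, seen as rise in luminescence signal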
The depositor's hits bear a star. The list is partial, so the mix of outcomes need not match the whole.

smiles	A1 apoptosis 2
C[C@@H]1CN([C@H](C)CO)C(=O)c2cc(NS(=O)(=O)c3ccc(F)cc3)ccc2O[C@H]1CN(C)S(=O)(=O)c1cn(C)cn1	0.2
C[C@H](CO)N1C[C@H](C)[C@H](CN(C)Cc2ccc(C(=O)O)cc2)Oc2c(NC(=O)c3ccncc3)cccc2C1=O	-0.8
C[C@H](CO)N1C[C@H](C)[C@@H](CN(C)C(=O)c2ccccc2)OCc2cn(nn2)CCCC1=O	0.0
Cc1ccc(S(=O)(=O)N(C)C[C@@H]2Oc3c(NC(=O)Nc4ccc5c(c4)OCO5)cccc3C(=O)N([C@@H](C)CO)C[C@H]2C)cc1	1.4
COc1ccc(CN(C)C[C@H]2OCCCC[C@H](C)Oc3ccc(NC(=O)Nc4ccc(F)cc4)cc3C(=O)N([C@@H](C)CO)C[C@H]2C)cc1	-1.7
C[C@@H]1CN([C@H](C)CO)C(=O)Cc2cc(NC(=O)Cc3cn(C)c4ccccc34)ccc2O[C@@H]1CN(C)S(=O)(=O)c1cn(C)cn1	0.0
C[C@H]1CN([C@@H](C)CO)C(=O)c2cccc(NS(=O)(=O)c3cn(C)cn3)c2O[C@@H]1CN(C)Cc1ccc(Cl)c(Cl)c1	1.0
COc1ccc(O)c(/C=N/NC(=O)CCCCCCC(=O)Nc2ccccc2O)c1	-0.8
COc1ccc(NC(=O)Nc2cccc3c2O[C@H](CN(C)S(=O)(=O)c2ccccc2)[C@@H](C)CN([C@H](C)CO)C3=O)cc1	1.6
C[C@@H]1CN([C@@H](C)CO)C(=O)Cc2cc(N(C)C)ccc2O[C@@H]1CN(C)Cc1ccc(C(=O)O)cc1	0.7
C[C@H](CO)N1C[C@H](C)[C@H](CN(C)Cc2ccc(C(F)(F)F)cc2)Oc2ccc(NC(=O)CCCN(C)C)cc2C1=O	-0.3
C[C@H]1CN([C@@H](C)CO)C(=O)Cc2cc(NC(=O)NC3CCCCC3)ccc2O[C@@H]1CN(C)Cc1ccc(C(=O)O)cc1	-1.1
CCCCNC(=O)c1ccc(C#CC(C)(C)C)c(OC(C)=O)c1	0.5
COc1ccc(NC(=O)N(C)C[C@@H]2OCCCC[C@@H](C)Oc3ccc(NC(=O)NC(C)C)cc3C(=O)N([C@H](C)CO)C[C@H]2C)cc1	-1.4
COc1ccc(S(=O)(=O)N(C)C[C@H]2OCCCC[C@@H](C)Oc3ccc(NS(=O)(=O)c4ccc(F)cc4)cc3C(=O)N([C@@H](C)CO)C[C@H]2C)cc1	-0.6
C[C@H]1CN([C@@H](C)CO)C(=O)c2cccc(NC(=O)C3CCOCC3)c2O[C@H]1CN(C)Cc1ccc(C(=O)Nc2ccccc2N)cc1	-0.8
CNC[C@H]1Oc2c(NC(=O)Nc3ccc(OC)cc3)cccc2C(=O)N([C@@H](C)CO)C[C@H]1C	-0.2
COc1ccc(S(=O)(=O)N(C)C[C@@H]2Oc3ccc(NC(=O)Nc4c(C)noc4C)cc3C(=O)N([C@H](C)CO)C[C@H]2C)cc1	0.9
COc1ccc(S(=O)(=O)Nc2ccc3c(c2)C(=O)N([C@H](C)CO)C[C@@H](C)[C@H](CN(C)C)OCCCC[C@@H](C)O3)cc1	-0.4
Cc1cccc(S(=O)(=O)N(C)C[C@H]2OCc3cn(nn3)CCCC(=O)N([C@@H](C)CO)C[C@H]2C)c1	0.0

Other compounds follow:
smiles	A1 apoptosis 2
C[C@@H]1CCCCO[C@@H](CN(C)S(=O)(=O)c2ccc(F)cc2)[C@@H](C)CN([C@@H](C)CO)C(=O)c2cc(NS(=O)(=O)c3ccc(F)cc3)ccc2O1	-0.5
COc1ccc(S(=O)(=O)N(C)C[C@H]2Oc3ccc(NS(=O)(=O)c4ccccc4)cc3CC(=O)N([C@H](C)CO)C[C@@H]2C)cc1	-0.7
C[C@@H]1CN([C@@H](C)CO)C(=O)Cc2cc(NC(=O)CCCCCC(=O)Nc3ccccc3N)ccc2O[C@H]1CN(C)C(=O)Nc1ccccc1	1.6
CC(C)NC(=O)Nc1ccc2c(c1)CC(=O)N([C@@H](C)CO)C[C@H](C)[C@H](CN(C)C(=O)Nc1cccc3ccccc13)O2	-0.2
C[C@@H]1CN([C@@H](C)CO)C(=O)Cc2cc(NC(=O)CCC(F)(F)F)ccc2O[C@@H]1CN(C)S(C)(=O)=O	0.2
C[C@H]1CCCCO[C@@H](CN(C)C(=O)C2CCCCC2)[C@@H](C)CN([C@@H](C)CO)C(=O)c2cc(NC(=O)Cc3ccccc3)ccc2O1	-0.4
C[C@H](CO)N1C[C@H](C)[C@H](CN(C)Cc2ccc(C(F)(F)F)cc2)OCCCC[C@H](C)Oc2ccc(NC(=O)c3ccccc3)cc2C1=O	-1.1
Cc1noc(C)c1NC(=O)N(C)C[C@H]1OCCCC[C@@H](C)Oc2ccc(NS(=O)(=O)c3cn(C)cn3)cc2C(=O)N([C@H](C)CO)C[C@@H]1C	-0.6
C[C@H](CO)N1C[C@H](C)[C@H](CN(C)S(C)(=O)=O)Oc2ccc(NS(=O)(=O)c3ccccc3)cc2CC1=O	1.3
C[C@@H]1CN([C@@H](C)CO)C(=O)c2cccc(NC(=O)Nc3ccc(C(F)(F)F)cc3)c2O[C@H]1CN(C)Cc1ccncc1	0.4
Cc1ccc(OC(=O)N(C)C[C@@H]2OCc3cn(nn3)CCCC(=O)N([C@@H](C)CO)C[C@H]2C)cc1	0.3
C[C@@H]1CN([C@H](C)CO)C(=O)c2cccc(NC(=O)c3ccc(-c4nccs4)cc3)c2O[C@H]1CN(C)Cc1ccncc1	0.8
C[C@H](CO)N1C[C@H](C)[C@H](CN(C)C(=O)Nc2ccccc2)Oc2ccc(NC(=O)Cc3ccccc3)cc2CC1=O	-0.7
Cc1ccc(S(=O)(=O)Nc2ccc3c(c2)C(=O)N([C@H](C)CO)C[C@@H](C)[C@@H](CN(C)S(C)(=O)=O)O3)cc1	-1.0
CNC[C@@H]1Oc2ccc(NC(=O)Nc3cccc4ccccc34)cc2CC(=O)N([C@H](C)CO)C[C@@H]1C	-1.2
Cc1noc(C)c1NC(=O)N(C)C[C@H]1OCCCC[C@@H](C)Oc2ccc(NC(=O)Nc3cccc4ccccc34)cc2C(=O)N([C@H](C)CO)C[C@@H]1C	-1.4
COc1ccc(S(=O)(=O)Nc2ccc3c(c2)CC(=O)N([C@H](C)CO)C[C@H](C)[C@H](CN(C)Cc2ccc(C(F)(F)F)cc2)O3)cc1	-0.3
C[C@H]1CN([C@@H](C)CO)C(=O)Cc2cc(NS(=O)(=O)c3cccs3)ccc2O[C@@H]1CN(C)Cc1ccccc1	-0.7
C[C@@H]1CCCCO[C@@H](CN(C)Cc2ccc(C(=O)O)cc2)[C@H](C)CN([C@H](C)CO)C(=O)c2cc(NC(=O)Cc3ccccc3)ccc2O1	0.9
C[C@H](CO)N1C[C@H](C)[C@@H](CN(C)C(=O)Nc2ccc3c(c2)OCO3)Oc2ccc(NC(=O)Nc3ccc4c(c3)OCO4)cc2C1=O	-0.3

Next records.
smiles	A1 apoptosis 2
C[C@H]1CN([C@@H](C)CO)C(=O)c2cc(NC(=O)Nc3cccc4ccccc34)ccc2O[C@H]1CN(C)S(=O)(=O)c1cn(C)cn1	1.7
C[C@H]1CN([C@@H](C)CO)C(=O)Cc2cc(NC(=O)Nc3ccc(C(F)(F)F)cc3)ccc2O[C@H]1CN(C)Cc1ccc(C(=O)O)cc1	0.9
C[C@@H]1CN([C@H](C)CO)C(=O)c2cccc(NC(=O)c3cnccn3)c2O[C@@H]1CN(C)CC1CCCCC1	-1.2
CC(C)=CCC[C@H](C)C/C=N/NC(=O)CCCCCC(=O)NO	-0.3
C[C@H]1CN([C@@H](C)CO)C(=O)c2cc(NC(=O)Cc3ccccc3)ccc2O[C@@H]1CN(C)CC1CCCCC1	-1.0
COc1ccc(S(=O)(=O)Nc2ccc3c(c2)C(=O)N([C@@H](C)CO)C[C@H](C)[C@@H](CN(C)C(=O)Nc2ccc4c(c2)OCO4)OCCCC[C@@H](C)O3)cc1	0.6
C[C@@H]1CN([C@@H](C)CO)C(=O)c2cc(NC(=O)Nc3ccc4c(c3)OCO4)ccc2O[C@@H]1CN(C)CC1CCCCC1	0.4
C[C@@H]1CCCCO[C@@H](CN(C)Cc2ccccc2)[C@@H](C)CN([C@H](C)CO)C(=O)c2cc(NC(=O)CCCCCC(=O)Nc3ccccc3N)ccc2O1	0.7
Cc1ccc(S(=O)(=O)N(C)C[C@H]2Oc3ccc(NC(=O)CCC(F)(F)F)cc3C(=O)N([C@@H](C)CO)C[C@H]2C)cc1	0.5
CCN(CC)c1ccc(/C=N/NC(=O)c2ccccc2O)c(O)c1	-9.0
C[C@@H]1CCCCO[C@H](CN(C)C(=O)Nc2cccc3ccccc23)[C@@H](C)CN([C@H](C)CO)C(=O)c2cc(NC(=O)c3ccccc3)ccc2O1	1.2
C[C@@H]1CN([C@H](C)CO)C(=O)c2cc(NS(=O)(=O)c3ccccc3)ccc2O[C@@H](C)CCCCO[C@H]1CN(C)C(=O)c1ccccc1	0.3
Cc1noc(C)c1S(=O)(=O)N(C)C[C@H]1OCCCC[C@H](C)Oc2ccc(NC(=O)Nc3ccccc3)cc2C(=O)N([C@@H](C)CO)C[C@@H]1C	0.7
Cc1ccc(S(=O)(=O)Nc2ccc3c(c2)C(=O)N([C@@H](C)CO)C[C@@H](C)[C@@H](CN(C)C(=O)C2CCCCC2)OCCCC[C@@H](C)O3)cc1	-0.4
CNC[C@@H]1OCCCC[C@H](C)Oc2ccc(NS(=O)(=O)c3c(C)noc3C)cc2C(=O)N([C@H](C)CO)C[C@@H]1C	-0.5
Cc1noc(C)c1NC(=O)N(C)C[C@@H]1Oc2c(NS(=O)(=O)c3ccc(F)cc3)cccc2C(=O)N([C@@H](C)CO)C[C@H]1C	1.4
C[C@@H]1CN([C@@H](C)CO)C(=O)CCCn2nncc2CO[C@@H]1CN(C)C(=O)Nc1ccc(N2CCN(C)CC2)cc1	1.5
C[C@H](CO)N1C[C@H](C)[C@H](CN(C)S(C)(=O)=O)OCCCC[C@H](C)Oc2ccc(N(C)C)cc2C1=O	1.0
O=C(C1=C[C@@H](C2CCCCC2)C[C@@H](OCc2ccc(CO)cc2)O1)N1CCN(Cc2ccccc2)CC1	0.1
Cc1nc(S(=O)(=O)NC[C@@H]2CCCN(Cc3cccc(OCCO)c3)C2)cn1C	0.0

> C[C@@H]1CCCCO[C@H](CN(C)C)[C@H](C)CN([C@H](C)CO)C(=O)c2cc(NC(=O)c3ccccc3)ccc2O1
  A1 apoptosis 2: -0.3
> C[C@@H]1CN([C@@H](C)CO)C(=O)c2cc(NS(=O)(=O)c3cn(C)cn3)ccc2O[C@@H](C)CCCCO[C@@H]1CN(C)C(=O)Nc1ccc(F)cc1
  A1 apoptosis 2: -0.6
> Cc1noc(C)c1NC(=O)N(C)C[C@H]1OCCCC[C@@H](C)Oc2ccc(NC(=O)Nc3ccc4c(c3)OCO4)cc2C(=O)N([C@H](C)CO)C[C@@H]1C
  A1 apoptosis 2: -1.9
> C[C@H](CO)N1C[C@H](C)[C@@H](CN(C)C(=O)Nc2ccc3c(c2)OCO3)Oc2c(NC(=O)C3CC3)cccc2C1=O
  A1 apoptosis 2: 1.0
> CC(C)NC(=O)Nc1ccc2c(c1)C(=O)N([C@@H](C)CO)C[C@H](C)[C@@H](CN(C)C(=O)Nc1ccc(F)cc1)O2
  A1 apoptosis 2: 0.0
> C[C@@H]1CN([C@H](C)CO)C(=O)c2cc(NC(=O)c3ccncc3)ccc2O[C@H]1CN(C)Cc1ccc(C(=O)Nc2ccccc2N)cc1
  A1 apoptosis 2: 0.0
> COc1ccc(NC(=O)Nc2ccc3c(c2)CC(=O)N([C@@H](C)CO)C[C@@H](C)[C@@H](CN(C)C(=O)Nc2c(C)noc2C)O3)cc1
  A1 apoptosis 2: -0.5
> C[C@H](CO)N1C[C@H](C)[C@@H](CN(C)C)OCc2cn(nn2)CCCC1=O
  A1 apoptosis 2: 0.0
> Cc1noc(C)c1NC(=O)Nc1ccc2c(c1)CC(=O)N([C@@H](C)CO)C[C@@H](C)[C@@H](CN(C)C)O2
  A1 apoptosis 2: -1.5
> C[C@@H]1CN([C@@H](C)CO)C(=O)Cc2cc(NC(=O)C3CC3)ccc2O[C@@H]1CN(C)S(=O)(=O)c1ccc(F)cc1
  A1 apoptosis 2: -0.8
> C[C@H](CO)N1C[C@H](C)[C@H](CN(C)S(=O)(=O)c2ccc(F)cc2)OCCCC[C@H](C)Oc2ccc(NC(=O)Cc3ccccc3)cc2C1=O
  A1 apoptosis 2: -1.5
> Cc1noc(C)c1S(=O)(=O)N(C)C[C@H]1Oc2ccc(NS(=O)(=O)c3cn(C)cn3)cc2CC(=O)N([C@@H](C)CO)C[C@H]1C
  A1 apoptosis 2: 0.8

Compounds above that have a CF3 group, in the order listed:
> C[C@H](CO)N1C[C@H](C)[C@H](CN(C)Cc2ccc(C(F)(F)F)cc2)Oc2ccc(NC(=O)CCCN(C)C)cc2C1=O
  A1 apoptosis 2: -0.3
> C[C@@H]1CN([C@@H](C)CO)C(=O)Cc2cc(NC(=O)CCC(F)(F)F)ccc2O[C@@H]1CN(C)S(C)(=O)=O
  A1 apoptosis 2: 0.2
> C[C@H](CO)N1C[C@H](C)[C@H](CN(C)Cc2ccc(C(F)(F)F)cc2)OCCCC[C@H](C)Oc2ccc(NC(=O)c3ccccc3)cc2C1=O
  A1 apoptosis 2: -1.1
> C[C@@H]1CN([C@@H](C)CO)C(=O)c2cccc(NC(=O)Nc3ccc(C(F)(F)F)cc3)c2O[C@H]1CN(C)Cc1ccncc1
  A1 apoptosis 2: 0.4
> COc1ccc(S(=O)(=O)Nc2ccc3c(c2)CC(=O)N([C@H](C)CO)C[C@H](C)[C@H](CN(C)Cc2ccc(C(F)(F)F)cc2)O3)cc1
  A1 apoptosis 2: -0.3
> C[C@H]1CN([C@@H](C)CO)C(=O)Cc2cc(NC(=O)Nc3ccc(C(F)(F)F)cc3)ccc2O[C@H]1CN(C)Cc1ccc(C(=O)O)cc1
  A1 apoptosis 2: 0.9
> Cc1ccc(S(=O)(=O)N(C)C[C@H]2Oc3ccc(NC(=O)CCC(F)(F)F)cc3C(=O)N([C@@H](C)CO)C[C@H]2C)cc1
  A1 apoptosis 2: 0.5

Screening data deposited in PubChem BioAssay by Broad Institute.
